Source: PubChem BioAssay
INS promoter inh = inhibitors of insulin promoter-driven GFP, primary screen, imaging, TRM-6 cells (human fetal islet line), eGFP reporter, cell count; reporter expression induced with tamoxifen; inhibition, % at 2 µM; 130,000 compounds, 0.9% hits; AID 1273, 2008;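 active = inhibition above the mean plus 3 SD, with well images judged a real hit on visual review, cut at about 60% in these data, passing the limit was not always enough; inconclusive = inhibition over the cutoff but images rejected on review; inactive = inhibition not above the cutoff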
PKD1 kinase inh = inhibitors of human PKD1 kinase, biochemical, fluorescence polarization; Serine/threonine-protein kinase D1 (Homo sapiens), Q15139; PKD1 kinase fluorescence polarization assay; inhibition, %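 (about 10 µM by stock and volumes)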; 200,000 compounds, 0.056% hits; AID 797, 2007;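 active = inhibition of 50% or more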;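 also: controls were vehicle for no effect and a reference inhibitor for full effect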
RGS16-Gao HTS = modulators of RGS16 binding to Galphao, primary screen, biochemical, human proteins, multiplexed bead flow cytometry; Regulator of G-protein signaling 16 (Homo sapiens) + Guanine nucleotide-binding protein …; bead-based flow cytometry RGS16-Galphao binding, fluorescence; actives lie on both sides; binding response (% of control), % at 10 µM; 220,000 compounds, 0.38% hits;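 active = below 25% or above 175%, edge rows of some plates excepted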;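 also: Galphao activated by GDP with aluminum fluoride before binding; 100% = wells without compound and 0% = beads without RGS; some results beyond the cut were filed as inactive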
Target sequence (O15492 whole entry, looked up): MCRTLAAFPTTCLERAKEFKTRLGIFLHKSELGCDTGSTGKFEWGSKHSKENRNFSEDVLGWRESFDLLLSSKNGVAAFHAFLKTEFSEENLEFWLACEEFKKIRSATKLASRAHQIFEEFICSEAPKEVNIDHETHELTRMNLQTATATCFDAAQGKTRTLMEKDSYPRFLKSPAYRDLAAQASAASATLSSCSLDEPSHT
Target sequence (P09471 whole entry, looked up): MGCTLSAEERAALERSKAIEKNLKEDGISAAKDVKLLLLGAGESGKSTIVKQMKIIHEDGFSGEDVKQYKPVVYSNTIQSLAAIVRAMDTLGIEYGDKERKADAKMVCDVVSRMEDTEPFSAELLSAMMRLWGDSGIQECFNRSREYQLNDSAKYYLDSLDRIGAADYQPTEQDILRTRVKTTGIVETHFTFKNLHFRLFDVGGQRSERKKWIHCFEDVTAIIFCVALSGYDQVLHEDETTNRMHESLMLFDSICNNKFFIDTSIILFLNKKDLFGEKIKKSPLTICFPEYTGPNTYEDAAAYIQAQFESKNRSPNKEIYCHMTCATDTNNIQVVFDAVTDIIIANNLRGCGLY
GALR2 agonist = GALR2 receptor agonists, primary screen, cell-based; Galanin receptor type 2 (Homo sapiens), O43603; GALR2-expressing cells, agonist activation read-out; activation, %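 (tested at 5 µM)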; 140,000 compounds, 0.48% hits; AID 803, 2007;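 active = above mean plus 3 SD of all compounds, about 5% in these data, not always enough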;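 also: 0% = vehicle buffer wells and 100% = reference agonist at full effect; tested in CHO reporter cells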
Target sequence (O43603 whole entry, looked up): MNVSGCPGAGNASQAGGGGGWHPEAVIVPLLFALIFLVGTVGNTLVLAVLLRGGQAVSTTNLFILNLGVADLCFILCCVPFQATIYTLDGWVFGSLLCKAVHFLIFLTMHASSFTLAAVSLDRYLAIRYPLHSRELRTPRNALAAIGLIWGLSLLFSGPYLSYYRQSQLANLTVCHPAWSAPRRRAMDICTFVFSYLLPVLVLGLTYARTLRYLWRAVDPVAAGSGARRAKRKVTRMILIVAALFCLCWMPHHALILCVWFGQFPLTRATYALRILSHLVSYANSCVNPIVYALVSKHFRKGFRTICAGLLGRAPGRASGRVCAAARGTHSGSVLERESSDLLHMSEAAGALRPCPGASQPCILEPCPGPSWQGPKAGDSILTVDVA
HSV augment = enhancers of HSV replication in host cells, fold increase, host cell viability. HSV replication augmentation in cells. maximum fold increase. 220,000 compounds, 0.005% hits. AID 1956, 2009;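 active = peak rise of 1.5-fold or more in the series; inconclusive = self-fluorescent or not available for retest; tested in PC3 cells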;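 also: first round at 10 µM; read as green reporter fluorescence; hits show the peak of a series up to 25 µM; 1 = signal of infected wells without compound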
INS promoter inh cell count = second read-out of INS promoter inh, no call of its own (marks repeat the call); normalized cell count, %; measured here: cell count, toxicity; reference of the scale not given here;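 cells exposed to compound for 48 h; stained nuclei by imaging scaled within each plate; lower means fewer cells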
HSV augment primary fold = further read-out of HSV augment, marked with its call; fold increase; compound at 10 µM; measured here: primary screen fold increase 10 uM; tested in PC3 cells;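 GFP signal in the first replicate; 1 = infected wells without compound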
* hit, by the source's call; i = inactive; u = inconclusive; x = not tested or not shown.

SMILES	INS promoter inh	INS promoter inh cell count	PKD1 kinase inh	RGS16-Gao HTS	GALR2 agonist	HSV augment	HSV augment primary fold
O=c1[nH]oc(O)c1-c1ncc(C(F)(F)F)cc1Cl	x	x	-13.6	93.9	x	i	1.02
COC(=O)CCCC(=O)NC(C)c1cnn(-c2ccccc2C)c1C (stereo unspecified)	0.0	105.8	4.5	104.0	x	i	0.89
COC(=O)CSc1nc2c(c(C3CC=CCC3)c1C#N)CCC2 (stereo unspecified)	27.8	132.5	-5.6	94.1	-0.3	i	0.99
CC(C)n1c(=O)[nH]c2ccccc21	9.1	75.5	0.3	102.9	-1.2	i	0.97
C=CC(=O)N1c2ccccc2Sc2ccc(NC(=O)OCC)cc21	39.5	107.5	-1.8	103.1	-1.5	i	0.91
COC(=O)CC1COc2ccccc2N1C(=O)c1cccc(C(F)(F)F)c1 (stereo unspecified)	-9.1	110.5	-5.5	109.4	x	i	1.13
CCC(=O)Nc1cccc(NC(=S)NC(=O)c2ccccc2Cl)c1	46.7	155.5	14.8	101.7	-0.8	i	0.91
COc1ccc(OC)c(NS(=O)(=O)c2ccc(NC(C)=O)cc2)c1	-14.8	77.5	-9.1	104.7	-2.9	i	0.94
Cc1c(N2C(=O)/C(=C\c3ccc(N(C)C)cc3)N(C)C2=S)c(=O)n(-c2ccccc2)n1C	-139.3	115.1	-11.2	109.8	0.0	u	x
O=[N+]([O-])c1cc(CN2CCCC2)c2cccnc2c1O	5.3	90.5	-0.5	104.9	-1.6	i	1.03

Some of the entries above, set out differently.
> O=[N+]([O-])c1cc(CN2CCCC2)c2cccnc2c1O
  INS promoter inh: 5.3 | INS promoter inh cell count: 90.5 | PKD1 kinase inh: -0.5 | RGS16-Gao HTS: 104.9 | GALR2 agonist: -1.6 | HSV augment: i | HSV augment primary fold: 1.03

> Cc1c(N2C(=O)/C(=C\c3ccc(N(C)C)cc3)N(C)C2=S)c(=O)n(-c2ccccc2)n1C
  INS promoter inh: -139.3 | INS promoter inh cell count: 115.1 | PKD1 kinase inh: -11.2 | RGS16-Gao HTS: 109.8 | GALR2 agonist: 0.0 | HSV augment: u | HSV augment primary fold: x

Carrying on.
SMILES	INS promoter inh	INS promoter inh cell count	PKD1 kinase inh	RGS16-Gao HTS	GALR2 agonist	HSV augment	HSV augment primary fold
COc1ccccc1CCN=C(N)NS(=O)(=O)c1cccs1	38.9	61.7	-5.6	103.3	x	i	1.06
COc1cc(C2C(C#N)=C(C)NC(C)=C2C#N)cc(OC)c1OC	33.3	95.1	-16.5	107.6	-2.1	i	0.94
COc1ccc([N+](=O)[O-])cc1N(CC(=O)NCCSc1ccc(C)cc1)S(C)(=O)=O	x	x	0.8	98.8	x	i	0.91
CCCCOC(=O)C1=C(C)NC(=O)NC1c1ccc([N+](=O)[O-])s1 (stereo unspecified)	13.3	87.3	-3.1	104.0	-1.5	i	0.92
Cc1cc(C)cc(N2CCCC2=O)c1	58.3	148.4	3.5	100.5	-2.5	i	0.95
C=C(C)C(=O)Nc1cccc(C2=NOC3(C2)C[C@@H](C(N)=O)N(C(=O)/C(C)=C/C)C3)c1 (stereo partly specified)	x	x	x	116.0	x	i	1.02
FC(F)(F)c1cccc(Nc2cc(-c3ccccc3)nc3ncnn23)c1	x	x	x	94.6	x	i	0.95
CN(Cc1ccccc1)c1nc2c(c(=O)[nH]c(=O)n2C)n1Cc1ccccc1Cl	22.7	164.7	9.8	104.0	0.8	i	0.82
COC(CNC(=O)C1CCN(C(=O)c2cc3oc(C)cc3n2Cc2c(F)cccc2Cl)CC1)OC	x	x	8.0	96.4	x	i	0.98
Cc1ncoc1C(=O)N1CCCC(C(=O)c2ccc(C(F)(F)F)cc2)C1 (stereo unspecified)	x	x	-5.7	101.1	x	i	1.22
Cn1c(=O)c(C(=O)CN2CCc3ccccc32)c(N)n(Cc2ccccc2)c1=O	x	x	-6.4	100.3	-1.1	i	2.2
COc1cccc(CN2CCN(Cc3cccn3-c3cccnc3)CC2CCO)c1 (stereo unspecified)	-4.3	145.6	-3.1	108.2	x	i	0.91
O=C(Nc1cccc(-c2nc3cccnc3s2)c1)C1c2ccccc2Oc2ccccc21	-15.0	124.0	-5.0	113.3	4.8	x	x
CC1(C)CC2(CCO1)OC(=O)CC2C(=O)Nc1c(Cl)cccc1Cl (stereo unspecified)	x	x	x	104.6	x	i	0.79
COc1ccc2c3c1OC1CC(O)C=CC31CCN(C)C2 (stereo unspecified)	x	x	x	91.3	x	i	1.06
Cc1cccc(NC2=C(C#N)C(=O)NC3(CCCC3)S2)c1	x	x	x	105.7	x	i	0.89
O=C(Sc1cccc2cccnc12)c1ccc(F)cc1	30.0	35.8	11.1	99.6	x	i	0.62
Cc1ccccc1N(CC(=O)Nc1ccc(F)cc1)S(C)(=O)=O	-8.8	91.2	-2.1	107.9	-0.8	i	0.9
CCOc1cccc(OCCOCCNC(C)(C)C)c1	-24.1	108.4	4.2	103.1	-1.2	i	1.03
COCCNC(=O)c1onc(CSc2ccccc2)c1C(=O)O	-8.1	147.2	-0.9	87.8	-1.2	i	0.86
CC(C)(C)c1nn(-c2ccccc2)c2[nH]c(=O)c(CNCc3ccco3)cc12	-26.7	35.6	22.2	112.9	-1.5	x	x
COc1ccc(C(=O)NNC(=O)CSc2nc3c([nH]2)c(=O)n(C)c(=O)n3C)cc1	x	x	-3.6	99.1	x	i	0.97
CCOC(=O)NCC(C#CCN(CC)CC)N(CC)CC (stereo unspecified)	-22.6	91.8	-1.8	102.2	-2.0	i	0.92
Cc1ccc(Nc2nc(N)nc(CSc3nncn3C)n2)cc1	-33.3	82.7	-12.0	107.9	-0.2	i	0.95
CN=Cc1c(NC)nc2c(C)cccn2c1=O	33.3	131.3	4.4	130.8	0.2	i	0.84
CC1CC(C)(C)NC(=S)N1CCCC(=O)N1CCN(c2ccc(F)cc2)CC1 (stereo unspecified)	2.7	85.7	-14.8	33.8	-0.2	i	0.96
Cc1cccc(N)c1SC1CCCCC1O (stereo unspecified)	x	x	-6.7	91.8	-1.8	i	1.06
Cc1ccc(S(=O)(=O)C2(C(=O)Nc3ccc(C(C)C)cc3)CC2)cc1	x	x	-0.4	100.8	x	i	0.94
CCOC(=O)c1cnc2cc(C)ccn2c1=O	-6.7	125.2	-1.1	96.1	-1.8	i	1.03
CC(C)OCCCNS(=O)(=O)c1ccc2c(c1)OCCO2	7.1	86.1	-4.2	98.3	-2.8	i	0.81
Cc1cccc(N(C)C(=O)c2coc(=O)c3ccccc23)c1	52.4	115.5	-4.7	63.7	-2.6	i	0.95
NC(=S)Nc1c(Cl)cccc1Cl	x	x	x	98.9	x	i	1.06
Cc1ccc(C)c(S(=O)(=O)NCc2ccc(C(=O)NCc3ccco3)cc2)c1	-310.0	44.5	6.4	143.4	-0.5	i	0.98
O=C(NC1CCCC1)c1c[nH]c2ccc(F)cc2c1=O	2.7	204.6	1.0	100.5	-1.1	i	0.91
O=C(c1cnc2n(c1=O)CCS2)N1CCCc2ccccc21	33.3	127.7	2.2	97.7	-0.6	i	0.97
Cc1nn(Cc2ccccc2Cl)c(C)c1NC(=O)/C=C/c1cnn(C)c1	20.0	171.9	-1.8	111.6	0.4	i	0.88
C=CCN1C(=NC(=O)CCC)SC2CS(=O)(=O)CC21 (stereo unspecified)	-40.0	57.4	-5.1	103.0	-1.2	i	1.25
COc1cccc(C2C(C(=O)c3cc4cccc(OC)c4o3)=C(O)C(=O)N2c2cc(C)on2)c1OC (stereo unspecified)	1.3	131.8	-3.5	1.2*	2.8	i	1.15
Fc1ccc(-c2cc(C(F)(F)F)nc(-n3cc(Cl)cn3)n2)cc1	0.0	135.0	-3.4	102.5	x	i	0.87
CN(C)Cc1ccccc1COc1ccccc1	27.3	141.3	-0.5	104.5	-0.8	i	0.92

13 entries from above, ordered by number of heavy atoms, smallest number first.
SMILES	INS promoter inh	INS promoter inh cell count	PKD1 kinase inh	RGS16-Gao HTS	GALR2 agonist	HSV augment	HSV augment primary fold
NC(=S)Nc1c(Cl)cccc1Cl	x	x	x	98.9	x	i	1.06
Cc1cccc(N)c1SC1CCCCC1O (stereo unspecified)	x	x	-6.7	91.8	-1.8	i	1.06
CN=Cc1c(NC)nc2c(C)cccn2c1=O	33.3	131.3	4.4	130.8	0.2	i	0.84
CN(C)Cc1ccccc1COc1ccccc1	27.3	141.3	-0.5	104.5	-0.8	i	0.92
C=CCN1C(=NC(=O)CCC)SC2CS(=O)(=O)CC21 (stereo unspecified)	-40.0	57.4	-5.1	103.0	-1.2	i	1.25
O=C(NC1CCCC1)c1c[nH]c2ccc(F)cc2c1=O	2.7	204.6	1.0	100.5	-1.1	i	0.91
CC(C)OCCCNS(=O)(=O)c1ccc2c(c1)OCCO2	7.1	86.1	-4.2	98.3	-2.8	i	0.81
O=C(c1cnc2n(c1=O)CCS2)N1CCCc2ccccc21	33.3	127.7	2.2	97.7	-0.6	i	0.97
Fc1ccc(-c2cc(C(F)(F)F)nc(-n3cc(Cl)cn3)n2)cc1	0.0	135.0	-3.4	102.5	x	i	0.87
Cc1ccc(S(=O)(=O)C2(C(=O)Nc3ccc(C(C)C)cc3)CC2)cc1	x	x	-0.4	100.8	x	i	0.94
Cc1nn(Cc2ccccc2Cl)c(C)c1NC(=O)/C=C/c1cnn(C)c1	20.0	171.9	-1.8	111.6	0.4	i	0.88
CC1CC(C)(C)NC(=S)N1CCCC(=O)N1CCN(c2ccc(F)cc2)CC1 (stereo unspecified)	2.7	85.7	-14.8	33.8	-0.2	i	0.96
COc1cccc(C2C(C(=O)c3cc4cccc(OC)c4o3)=C(O)C(=O)N2c2cc(C)on2)c1OC (stereo unspecified)	1.3	131.8	-3.5	1.2*	2.8	i	1.15

(further entries)
SMILES	INS promoter inh	INS promoter inh cell count	PKD1 kinase inh	RGS16-Gao HTS	GALR2 agonist	HSV augment	HSV augment primary fold
CC(C)(CC(=O)O)CC(=O)NCc1c(Cl)cccc1Sc1ccc(Cl)cc1	x	x	x	98.0	x	i	0.96
COc1cccc(OCCn2c(C)c(/C=N/n3cnnc3)c3ccccc32)c1	x	x	3.7	104.2	3.0	i	1.05
CCCC(=O)Nc1ccc2nc(SCC(=O)N3CCCC3)sc2c1	6.7	120.2	1.4	108.8	x	i	1.02
COc1cc(C(=O)O/N=C(\N)c2ccccn2)cc(OC)c1OC	x	x	x	104.0	x	i	0.86
O=c1cc(NCc2ccccc2)nc2n1CCCS2	-85.7	109.8	-10.0	80.8	-0.3	i	0.93
O=[N+]([O-])c1cccc(-c2ccc(SCc3ccccn3)nn2)c1	17.6	103.8	-2.4	90.0	x	i	0.91
CC(NC(=O)COc1cc(=O)n(C)c2ccccc12)c1ccc2c(c1)OCCO2 (stereo unspecified)	21.4	117.4	-6.7	105.8	0.0	i	0.87
Fc1ccc(-c2ccnc3nc(N4CCOCC4)nn23)cc1	-73.0	88.9	4.8	103.5	-1.4	i	0.86
O=[N+]([O-])c1cc(S(=O)(=O)N2CCCCCC2)ccc1F	x	x	-10.9	101.8	-2.0	i	0.92
COC(=O)C1=C(C)N=C2SC(C#N)=C(N)N2C1c1cccc(OC)c1 (stereo unspecified)	100.0*	2.8*	-1.6	94.3	-2.3	i	1.03
